Source: PubChem (several laboratories)
HNF4A DNA FP – change in binding of human HNF4 alpha to DNA | HNF4a-FITC DNA binding, fluorescence polarization, 1 h | activity change, % at 10 µM | 360,000 compounds, 0.3% hits | AID 1224865; in the data active means activity change above about 30%, passing the limit was not always enough;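 further: controls were the assay level and a saturating level of protein; the project sought stronger binding though the title names inhibitors; some compounds called inactive have numbers as strong as hits; positive values seem to mean higher polarization but the record does not say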
Target sequence (P41235 whole entry, looked up): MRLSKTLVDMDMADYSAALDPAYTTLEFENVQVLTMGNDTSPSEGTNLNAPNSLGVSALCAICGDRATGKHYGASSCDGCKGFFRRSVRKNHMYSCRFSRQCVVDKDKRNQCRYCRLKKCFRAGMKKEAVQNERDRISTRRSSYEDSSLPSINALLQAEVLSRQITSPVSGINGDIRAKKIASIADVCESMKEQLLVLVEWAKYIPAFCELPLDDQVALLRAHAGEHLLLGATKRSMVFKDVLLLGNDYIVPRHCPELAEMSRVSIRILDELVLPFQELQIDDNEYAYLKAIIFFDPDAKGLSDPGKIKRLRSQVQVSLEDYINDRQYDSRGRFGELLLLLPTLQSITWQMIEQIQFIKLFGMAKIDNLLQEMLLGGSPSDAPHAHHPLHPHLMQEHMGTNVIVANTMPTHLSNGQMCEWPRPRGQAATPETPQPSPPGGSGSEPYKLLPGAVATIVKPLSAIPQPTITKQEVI
rRNA inh HTS – selective bacterial rRNA inhibition in E. coli; E. coli WT GFP vs humanized-ribosome RFP mutants, fluorescence, 24 h; stronger effect = lower value; DMSO median 0, no signal -100; GFP signal change (wild-type ribosome), % (no concentration beside the values); 350,000 compounds, 1.6% hits; AID 720706;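 active means significant combined selectivity score with lowered wild-type GFP, culture density cut under 30%, mutant RFP and density less affected; inactive means any of these conditions unmet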; further: one replicate is shown; some compounds called inactive have numbers as strong as hits
B2AR ag – agonists of human beta-2 adrenergic receptor inducing internalization | P07550 | Am2.2-beta2AR cells, FAP receptor internalization, flow cytometry; reference of the scale not given here | response, % (concentration not given with the values) | 340,000 compounds, 0.43% hits;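 active means response above a set limit, near 3 SD of response in nonfluorescent compounds, cut at about 42% in these data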;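 further: stock transfer was 100 nL into about 11 µL; a reference agonist was the positive control; negative values mostly stem from fluorescent compounds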
UCH37 DUB inh – inhibitors of human deubiquitinating enzyme UCH37. inhibition, % (test concentration not listed). purified proteasome/UCH37, Ub-AMC cleavage fluorescence. AID 588478. Q9Y5K5. 330,000 compounds, 0.33% hits;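 active means mean of two replicates above 20%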;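 further: 0% = compound-free wells with enzyme and 100% = wells lacking proteasome; stock transfer was 100 nL into about 20 µL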
Target sequence (Q9Y5K5 whole entry, looked up): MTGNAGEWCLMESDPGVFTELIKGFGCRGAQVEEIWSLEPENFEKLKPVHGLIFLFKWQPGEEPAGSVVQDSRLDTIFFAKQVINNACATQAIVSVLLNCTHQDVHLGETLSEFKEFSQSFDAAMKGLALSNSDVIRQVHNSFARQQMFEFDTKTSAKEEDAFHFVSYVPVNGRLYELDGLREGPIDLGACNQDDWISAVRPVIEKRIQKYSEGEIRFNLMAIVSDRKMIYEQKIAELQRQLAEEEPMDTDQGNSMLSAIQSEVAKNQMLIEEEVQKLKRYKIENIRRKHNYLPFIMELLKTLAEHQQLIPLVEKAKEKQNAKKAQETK
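Material: human UCH37 enzyme supplied as purified proteasome complex / Amount: 0.15 nM proteasome as dispensed / Buffer or medium: pH 7.4 Tris-HCl (50 mM) with ovalbumin, ATP-MgCl2, DTT / Times: preincubation 30 min, reaction 25 min, room temperature / Technique: AMC fluorescence from Ub-AMC cleavage, excitation 355 nm, emission 460 nm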
FGF22 binding – FGF22 (human) thermal shift binding. Q9HCT0. recombinant FGF22 thermal shift, SYPRO orange fluorescence; percent of sucrose octasulfate shift, DMSO zero. calls only at 9.99 µM. 340,000 compounds, 1.5% hits. AID 651658;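 active means melting point raised past a set limit in the mean and every replicate; inconclusive means no clear call; three in four hits are not shown here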
Ecoli growth – E. coli growth inhibition; Escherichia coli growth, OD600, 23 h; stronger effect = lower value; OD600 absorbance (test concentration not listed); 330,000 compounds, 0.21% hits; AID 1053175;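 active means OD600 absorbance below the run mean of sample wells minus 3.6 SD, in any replicate, cut at about 0.56 in these data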;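 further: stock transfer was 300 nL into about 60 µL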
ALR inh – human ALR oxidase inhibition via reduced H2O2; AID 485317; purified ALR, DTT oxidation, H2O2 HRP-luminol luminescence; 290,000 compounds, 3.8% hits; inhibition, % (concentration not given with the values); P55789;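 active means mean and each replicate at 75% or more; inconclusive means only one of the two met; inactive means neither met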;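 further: stock transfer was 7.5 nL into about 7.5 µL; 0% = neutral wells and 100% = wells with inactivated enzyme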
Target sequence (P55789 whole entry, looked up): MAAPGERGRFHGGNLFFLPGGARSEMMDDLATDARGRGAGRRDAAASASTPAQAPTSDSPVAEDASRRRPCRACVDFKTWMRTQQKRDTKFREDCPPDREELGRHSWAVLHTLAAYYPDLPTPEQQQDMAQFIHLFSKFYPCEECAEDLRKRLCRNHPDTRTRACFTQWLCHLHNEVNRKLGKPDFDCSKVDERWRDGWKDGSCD
rRNA inh HTS OD600 – recorded beside rRNA inh HTS, whose call it bears; OD600 change, %; measured here: OD600 growth;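 optical density of the mix in the first replicate; 0 = DMSO median and -100 = no signal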
rRNA inh HTS RFP – also measured in rRNA inh HTS; calls as there; RFP signal change, %; measured here: RFP humanized mutant strains;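 first replicate; 0 = DMSO median and -100 = no signal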
Numbers without * were called inactive; i = inactive; ? = inconclusive; . = no result given; & = joins results of further samples; ! = a repeat was not active. Not all compounds are listed. The share of hits here may be higher or lower than overall.

SMILES,HNF4A DNA FP,rRNA inh HTS,rRNA inh HTS OD600,rRNA inh HTS RFP,B2AR ag,UCH37 DUB inh,FGF22 binding,Ecoli growth,ALR inh
O=C(/C=C/c1ccc(Br)cc1)c1ccco1,-0.5,4,5,0.4,16,2.3,i,0.63,-2
CC(=O)N=C1SC2CS(=O)(=O)CC2N1c1c(Cl)cccc1Cl (stereo not drawn),3.0,.,.,.,14,3.7,.,0.75,-15
COC(=O)c1ccc(C(=O)OC)c(NC(=S)N2CC(C)CC(C)C2)c1 (stereo not drawn),-0.7,.,.,.,-10,-47,.,0.65,-3
Cc1nn(C)c(C(=O)NCc2ccc(Cl)cc2)c1Cl,3.0,.,.,.,-5,2.2,.,0.69,-19
CCC(=O)N1CCN(c2ccc(NC(=O)c3ccc([N+](=O)[O-])o3)cc2)CC1,-1.1,11,-4,-4.4,-1,8.5,i,0.65,.
O=C(CN1CCN(c2ccc(Cl)cc2[N+](=O)[O-])CC1)N1CCOCC1,-0.8,-3,2,0.6,-9,2.3,i,0.66,-25
CCCCn1c(N)c(Sc2ccc([N+](=O)[O-])cc2)c(=O)[nH]c1=O,2.2,2,4,-0.3,7,9.3,i,0.67,-8
CC(=O)Nc1ccc(-c2ccc(NC(C)=O)cc2)cc1,3.0,14,17,-3.3,7,3.3,i,0.71,47
Cc1ccccc1C(=O)Nc1nc2n(n1)C(c1ccccc1)CC(=O)N2 (stereo not drawn),2.3,.,.,.,-4,4.0,.,0.69,0
COC(=O)c1sc2nc(N3CCCCC3)c3c(c2c1N)CCCC3,-0.8,.,.,.,0,-47,.,0.75,-2
Cc1noc(N)c1C(=O)Nc1ccccc1F,-0.1,.,.,.,1,5.3,.,0.68,-3
COc1cc(NS(=O)(=O)c2ccc(NC(=O)c3ccco3)cc2)nc(OC)n1,2.0,.,.,.,2,2.2,.,0.71,-9
O=C(CN1C(=O)c2ccccc2C1=O)NN1C(=O)c2ccccc2C1=O,-3.7,.,.,.,3,1.4,.,0.66,0
Cc1oc(-c2cccs2)nc1CSCC(=O)NC1CC1,2.9,.,.,.,-4,-18,.,0.69,.
c1ccc(-c2csc(Nc3ccc4c(c3)OCCO4)n2)cc1,1.3,.,.,.,19,-15,.,0.68,1
COc1ccc(CCn2c(-c3ccccc3)nc3c(c(=O)c4ccccc4n3C)c2=O)cc1,.,.,.,.,.,3.6,.,0.71,-6
COc1ccc2c(C)c(Cc3ccccc3)c(=O)oc2c1OC,6.8,9,8,-5.6,3,-59,i,0.67,-2
CN(C)CCCNC(=O)CCc1ncc(C(F)(F)F)cc1Cl,0.3,11,11,0.1,-5,4.4,i,0.68,.
CCS(=O)(=O)n1nc(-c2ccccc2)cc1N,0.3,1,3,-4.9,-3,3.6,i,0.67,-7
CCCCn1nc(C(=O)Nc2cc(S(=O)(=O)N(C)C)ccc2C)c2ccccc2c1=O,-4.3,4,-5,-4.1,-1,-6.0,i,0.74,?
COc1cnc(-c2ccccn2)nc1Oc1c(C)cccc1C,-2.6,-47,-67,-14,7,2.1,i,0.7,64
Cc1cccc(C(=O)NC(NCc2ccco2)C(Cl)(Cl)Cl)c1 (stereo not drawn),0.7,.,.,.,1,-0.8,.,0.72,-4
CCn1c(COc2ccc(C(C)C)cc2)nnc1SCC(=O)Nc1nccs1,1.6,.,.,.,0,3.5,.,0.71,-13
O=C(NCc1ccco1)c1ccc(Cn2c(=S)[nH]c3ccccc3c2=O)cc1,0.2,10,7,4.2,-8,1.9,i,0.71,13
O=C(CC1SC(N2CCCC2)=NC1=O)Nc1ccc(C(=O)Nc2ccccc2)cc1 (stereo not drawn),-3.9,5,18,5.3,-3,1.7,i,0.7,-10
O=C(NCC1CCCN1S(=O)(=O)c1cccs1)c1ccc(F)cc1 (stereo not drawn),1.5,2,-1,-0.4,-9,-1.2,i,0.66,-8
CC(C)CN(C(=O)COC(=O)CCc1c[nH]c2ccccc12)C1CCS(=O)(=O)C1 (stereo not drawn),-0.5,.,.,.,7,0.7,.,0.75,5
CCCCC(c1nnnn1CC1CCCO1)N1CCN(Cc2ccccc2)CC1 (stereo not drawn),4.5,.,.,.,8,0.4,.,0.73,1
O=C(Cc1cccc2ccccc12)NNC(=O)Nc1cccc(Cl)c1,1.7,.,.,.,5,1.2,.,0.73,-1
Cc1cc(NC(=O)CN2C(=O)/C(=C/c3cccc(Br)c3)SC2=S)no1,17,15,4,2.8,-8,5.3,i,0.7,2
COc1ccc([C@H]2CN(c3ccc(OC)cc3)C(=O)[C@@H]2CC(=O)Nc2ccccc2)cc1,3.4,-28,-24,-3.9,.,.,i,.,.
COc1ccc(Cl)cc1N(CC(=O)N1CCCCC1)S(C)(=O)=O,-4.5,14,0,-2.5,-3,-1.6,i,0.68,1
CCCCC(=O)Nc1ccc(NC(=O)c2cc(OC)c(OC)c(OC)c2)cn1,-2.5,.,.,.,8,-2.6,.,0.75,-3
N#C/C(=N\O)c1nc(-c2ccccc2)cs1,2.6&-1.7,.,.,.,18&3,.,.,.,89*!
CC(C)CN(C(=O)COC(=O)c1nc(Cl)ccc1Cl)c1c(N)n(Cc2ccccc2)c(=O)[nH]c1=O,3.6,10,10,-2.3,-5,2.3,i,0.7,4
CCC(C)NC(=O)CC(NS(=O)(=O)c1ccc(NC(C)=O)cc1)C(C)C (stereo not drawn),1.9,20,5,-1.0,6,-0.3,i,0.72,.
O=C(c1ccc(NS(=O)(=O)c2ccc3c(c2)OCCO3)cc1)N1CCCCC1,5.0,4,-7,-1.0,-2,0.5,i,0.7,9
COc1ccc(CCNC(=O)CSc2ccsc2[N+](=O)[O-])cc1OC,-3.5,-41,-56,1.9,2,9.7,.,0.72,-3
Cc1ccc(C(OC(=O)c2ccco2)C(=O)NCc2cccs2)cc1 (stereo not drawn),-2.4,.,.,.,5,2.2,.,0.71,.
Cc1ccc2nc(SCC(=O)Nc3ccc(C)c([N+](=O)[O-])c3)[nH]c2c1,-3.1,.,.,.,3,-19,.,0.63,87*
CCc1ccc(-n2nnnc2SCC(=O)Nc2ccc(NC(C)=O)cc2)cc1,-1.2,5,8,0.8,-3,7.0,i,0.69,-1
Cc1ccc(C(=O)CSc2nccn2-c2ccccc2)cc1,2.0,.,.,.,0,3.4,.,0.76,.
CCOC(=O)c1c(NC(=O)C2CCCO2)sc(C)c1C (stereo not drawn),-1.5,-6,-3,-1.4,-3,3.2,i,0.72,10
COc1cc2nc(CN3C(=O)c4ccccc4C3=O)oc(=O)c2cc1OC,1.5,.,.,.,-3,-1.6,.,0.7,-8
Cc1ccc(S(=O)(=O)/N=C(\CN2CCCCC2)N2CCOCC2)cc1,1.4,-9,-10,-4.6,-1,.,i,.,1
CCN(CCNC(=O)c1ccc(C#N)cc1)c1cccc(C)c1,0.9,.,.,.,6,2.0,.,0.68,98*
CCOC(=O)N1CCN(C(=O)CCn2nc(-c3ccccc3)ccc2=O)CC1,-1.7,3,-1,-5.9,-6,3.5,i,0.65,-2
CP(C)(=O)CCP(=O)(c1ccccc1)c1ccccc1,1.7,-7,-9,3.9,2,0.3,i,0.65,-10
S=c1[nH]nc(-c2cccnc2)n1-c1ccc2c(c1)OCCO2,-3.7,7,-2,-0.6,10,0.7,i,0.64,-2
O=C(CSc1ncccn1)Nc1ccc2c(c1)OCO2,1.2,-6,0,1.3,3,-1.4,.,0.71,-24
O=C(CC1CCCCC1)N1CCCC(c2nc(-c3ccc(S(=O)(=O)N4CCCC4)cc3)no2)C1 (stereo not drawn),-6.0,-6,-5,3.7,1,3.8,i,0.68,-8
CCc1nc2ccc(C(=O)NCCCn3ccnc3)cn2c1N(C)Cc1ccc(OC)cc1,-3.5,-3,-10,3.0,.,.,i,.,.
N#CCCN(C(=O)CSc1nnc(-c2ccncc2)n1C1CC1)c1ccccc1,3.4,24,18,0.8,3,0.9,i,0.71,.
O=C(CN1CCN(C(=O)CCC(=O)N2CCC(c3ccccc3)=N2)CC1)Nc1ccc(F)cc1,-4.4,4,-3,-0.5,3,-0.1,i,0.65,.
Cc1ccc[n+](C(C)C(=O)Nc2ccc(C)c(C)c2)c1 (stereo not drawn),1.1,12,6,2.2,-4,1.6,i,0.68,-19
O=C(CN1CCN(C/C=C/c2ccccc2)CC1)Nc1ccc(F)cc1F,6.3,2,-14,0.9,-2,1.9,i,0.7,-23
CCOC(=O)c1ccc(NS(=O)(=O)c2c(N)[nH]c(=O)[nH]c2=O)cc1,-1.4,-1,9,-4.8,-4,4.5,i,0.76,-6
O=C(COc1cccnc1[N+](=O)[O-])NCCc1ccccc1,7.7,3,0,2.8,20,0.1,i,0.72,-6
COCCNC(=S)NC1CC2CCC(C1)N2Cc1ccccc1 (stereo not drawn),0.5,12,12,0.8,-6,1.4,i,0.67,-14
O=C(Nc1cccnc1)c1cnn2cccnc12,-0.2,.,.,.,-6,1.2,.,0.65,-4

By substructure, the entries above with bromine.
SMILES,HNF4A DNA FP,rRNA inh HTS,rRNA inh HTS OD600,rRNA inh HTS RFP,B2AR ag,UCH37 DUB inh,FGF22 binding,Ecoli growth,ALR inh
O=C(/C=C/c1ccc(Br)cc1)c1ccco1,-0.5,4,5,0.4,16,2.3,i,0.63,-2
Cc1cc(NC(=O)CN2C(=O)/C(=C/c3cccc(Br)c3)SC2=S)no1,17,15,4,2.8,-8,5.3,i,0.7,2

(listing goes on)
SMILES,HNF4A DNA FP,rRNA inh HTS,rRNA inh HTS OD600,rRNA inh HTS RFP,B2AR ag,UCH37 DUB inh,FGF22 binding,Ecoli growth,ALR inh
CCOP(=O)(OCC)c1nc(-c2ccc(Br)cc2)oc1N1CCCCC1,-1.1,-11,-14,2.1,1,-24,i,0.67,14
Clc1ccc(Nc2ccccc2)nn1,0.8,10,-1,1.2,-11,-1.1,i,0.69,-7
Cc1cc(C(=O)CCC(=O)N2CCN(c3ccccc3)CC2)c(C)s1,0.4,-26,-27,-7.5,-8,1.4,.,0.68,68
Cc1ccc(S(=O)(=O)CCC(=O)NCCN2C(=O)S/C(=C\c3ccccc3)C2=O)cc1,-2.8,.,.,.,-12,-0.6,.,0.72,.
CC(Oc1ccc(Br)cc1)C(=O)Nc1ccc(S(=O)(=O)Nc2nccs2)cc1 (stereo not drawn),0.9,5,-28,-1.9,4,2.3,i,0.73,7
COc1cc(-c2n[nH]c(=S)n2Cc2ccccc2)cc(OC)c1OC,-1.3,-17,-28,-1.9,8,2.5,i,0.69,69
Cc1c(Cl)cccc1Nc1ccccc1C(=O)O,-1.8,-45,-65,-12,3,2.4,i,0.67,98*
O=C1CCC(C(=O)O)(c2ccccc2)C1 (stereo not drawn),.,.,.,.,.,5.0,.,0.75,-1
CCOc1c(Br)cc(CNc2ccc(N3CCN(C(C)=O)CC3)cc2)cc1OC,-1.3,5,6,9.5,6,2.4,i,0.69,98*
COc1ccc(C2CC(=O)C3=C(C2)NC(C)=C(C(=O)Nc2ccccc2C)C3c2coc3ccc(C)cc3c2=O)cc1OC (stereo not drawn),1.0,.,.,.,-7,0.3,.,0.67,-4
NC1=NC(=Nc2ccc(S(=O)(=O)N3CCOCC3)cc2)c2ccccc21,2.8,8,10,1.9,-6,7.9,i,0.65,-8
